# Screens deposited in PubChem BioAssay by National Center for Advancing Translational Sciences (NCATS).
# TRPML1 inh: inhibitors of human TRPML1 channel; Q9GZU1; TRPML1-inducible cells, Ca2+ dye fluorescence, FDSS; stronger effect = lower value; inhibition of EC80 agonist-evoked calcium signal; activity change, negative = inhibition, % (no concentration beside the values); 390,000 tested, 0.02% active; AID 624415; in the data active means activity change below about -50%; inconclusive means about -30% to -50%; inactive means above about -30%;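 further: stimulus is agonist 54-4 at its EC80 concentration; on the % scale 0 is the no-effect control and ±100 the full control effect; compound concentration not given in the record; the text of the record puts the active cut at -80%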
# Target sequence (Q9GZU1 whole entry, looked up): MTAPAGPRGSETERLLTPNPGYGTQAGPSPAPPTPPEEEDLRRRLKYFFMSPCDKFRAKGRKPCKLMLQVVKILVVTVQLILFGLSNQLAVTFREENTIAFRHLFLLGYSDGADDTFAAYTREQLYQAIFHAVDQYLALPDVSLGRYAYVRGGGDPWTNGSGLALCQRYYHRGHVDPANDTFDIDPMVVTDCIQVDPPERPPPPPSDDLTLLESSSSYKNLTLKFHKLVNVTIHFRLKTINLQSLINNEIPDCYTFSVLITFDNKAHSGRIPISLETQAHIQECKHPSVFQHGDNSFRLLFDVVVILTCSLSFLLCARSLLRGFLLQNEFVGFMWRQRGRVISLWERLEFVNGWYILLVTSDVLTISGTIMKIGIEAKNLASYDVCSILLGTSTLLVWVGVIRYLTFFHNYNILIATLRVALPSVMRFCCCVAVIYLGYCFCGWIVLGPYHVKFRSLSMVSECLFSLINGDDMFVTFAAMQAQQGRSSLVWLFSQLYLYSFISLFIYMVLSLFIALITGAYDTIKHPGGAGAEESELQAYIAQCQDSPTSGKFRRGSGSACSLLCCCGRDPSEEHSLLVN
#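 Tet-induced TRPML1-DL cells loaded with Ca8 no-wash calcium dye were read kinetically on FDSS. Compound addition was followed by EC80 agonist 54-4 (4 uM final); inhibition was read over 110 s.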
# Menin MLL FP FL: inhibitors of human menin-MLL interaction, wild-type MLL peptide; FP activity change, % at 61.4 µM; Fluorescence polarization, fluorescein-MLL peptide displacement from menin; AID 1766; 290,000 tested, under 10 active; inconclusive = falling polarisation curve, or a change in total fluorescence; inactive = total fluorescence flat and polarisation flat or rising; no compound was filed as active; the % refers to the polarisation; negative = inhibition;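 further: % of control where 0% means no effect; inhibitors lower the polarisation; unlabelled MLL peptide was the positive control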
# ClpP mod: qHTS Assay for Activators of ClpP; Potency, µM (doses to about 57.5 µM), for the others: at the top dose activity change, negative = active; 340,000 tested, 1.9% active; purified B. subtilis ClpP, FRET peptide cleavage, 20 min; active = well fitted falling curve with a large enough effect; inconclusive = small, poorly fitted or top-dose-only effect; inactive = no such curve, though single readings can be large or run the other way; further: potency means the concentration at half of the fitted maximal effect; the source files actives as falling curves though it sought activators and does not explain the sign; nearly all actives have a fitted effect of over 65% in size; many hits overshoot -100%
# Target sequence (P80244 whole entry, looked up): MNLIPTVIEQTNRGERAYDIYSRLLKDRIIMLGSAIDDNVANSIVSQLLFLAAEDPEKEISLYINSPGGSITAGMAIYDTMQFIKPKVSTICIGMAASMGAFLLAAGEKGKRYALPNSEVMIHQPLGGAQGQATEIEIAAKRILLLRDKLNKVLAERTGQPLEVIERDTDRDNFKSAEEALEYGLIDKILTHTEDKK
#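 Purified B. subtilis ClpP, 10 microg/mL final in Tris/HCl pH8 with KCl, BSA, glycerol and Tween-20, cleaved an Abz/nitrotyrosine-quenched decapeptide. Fluorescence (ex 320, em 430) was read at 0 and 20 min at room temperature. Delta was normalized to 5.8 microM ADEP and DMSO/no-enzyme controls.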
# gsp agonist: activates gsp, the McCune-Albright syndrome mutation; gsp mutant cells, cAMP HTRF, 30 min; control for the full effect not named in the record; Potency, µM (highest dose often 76.9 µM), for the others: top-dose activation (cAMP increase), hits mostly activators; 340,000 tested, 0.13% active; AID 624287; active = well fitted activation curve with a large enough effect; inconclusive = small, poorly fitted or top-dose-only effect, or another doubt; inactive = no such curve, though single readings can be large or run the other way; cell line not stated here;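 further: phosphodiesterase inhibitor Ro 20-1724 added with compounds to block cAMP breakdown; potency means the concentration at half of the fitted maximal effect; nearly all actives have a fitted effect of over 60% in size; about a fifth of the inactives were tested at one dose only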
#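 Cells in DMEM/10% FBS with G418 were pretreated with compounds in DMSO plus […] (300 uM stock) for 30 min at 37C. cAMP was measured by HTRF (cAMP-d2 plus anti-cAMP antibody-K) after 30 min at room temperature.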
# TRPV1 PAM: enhances activation of the human vanilloid receptor TRPV1. AID 540277. potentiation, % at 8.33 µM. 320,000 tested, 0.02% active. Q8NER1. TRPV1-expressing cells, Fluo-8 calcium influx, capsaicin EC20 potentiation; host cell line not named in the record; control for the full effect not named in the record; active means potentiation above 80%; inconclusive means 30% to 80%; inactive means below 30%; further: 0% is about no effect
#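 TRPV1-expressing cells were cultured overnight at 35.5C and loaded with Fluo-8 calcium dye for 40 to 90 min at room temperature. After a 10 s baseline, compound was added and calcium influx was read kinetically for 3 min (ex 480/em 520 nm).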
# Sfp inh: blocks B. subtilis Sfp PPTase activity; Biochemical Sfp PPTase activity, qHTS; Potency, µM, for the others: max response, negative = inhibition, actives largely listed as inhibitors; 310,000 tested, 3.5% active; AID 1490; active means well fitted inhibition curve with a large enough effect; inconclusive means small, poorly fitted or top-dose-only effect, or another doubt; inactive means no such curve, though single readings can be large or run the other way;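 further: the enzyme is Sfp with the accession as filed and its product quenches rhodamine fluorescence; potency means the concentration at half of the fitted maximal effect; 0% = enzyme reaction without inhibitor and -100% = no enzyme wells; top concentration of the series not given in the record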
#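 Step 1, compound plus 15 nM Sfp-PPTase, 15 min, room temperature. Step 2, add rhodamine-CoA (5 uM) and BHQ-2-YbbR (12.5 uM). Step 3, read 525/598 nm fluorescence at 0 and 30 min.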
# gsp antag: antagonizes gsp, the McCune-Albright syndrome mutation; 340,000 tested, 0.4% active; AID 624288; Potency, µM (doses to about 76.9 µM), inactives show at the highest dose activity change, negative = inhibition, most hits filed as inhibitors; gsp-mutant cells, cAMP HTRF, 30 min; control for the full effect not named in the record; active = falling curve of any shape with a large fitted effect; inconclusive = falling curve, mostly with a smaller effect; inactive = flat or rising curve; cell line not stated here;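 further: intracellular cAMP measured with PDE inhibitor Ro 20-1724 present during compound exposure; potency means the concentration at half of the fitted maximal effect; on the % scale 0 is the no-effect control and ±100 the full control effect; nearly all actives have a fitted effect of over 65% in size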
#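 HTRF cAMP read-out (cAMP-d2 plus anti-cAMP antibody-K in lysis buffer, 30 min RT). Before lysis, cells are exposed to compounds with […] for 30 min at 37C in DPBS containing Ca/Mg, BSA and Tween 20.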
# Numbers without * were called inactive; ? = inconclusive; nt = no result given; & = joins results of further samples; [ ] = dose if it differs, or a comment.
# Values run as follows: TRPML1 inh	Menin MLL FP FL	ClpP mod	gsp agonist	TRPV1 PAM	Sfp inh	gsp antag
[1] O=S1(=O)CC(O)C(NCc2ccco2)C1 (stereo not drawn)
  -1	-0.6	-2.4%	25%	7	7%	9%
[2] CC1(C)O[C@@H]2[C@H](O1)[C@@H](COS(=O)(=O)O)O[C@H]2n1c(=S)[nH]c2c(=O)[nH]c(N)nc21
  16	nt	0.2%	23%	12	nt	2%
[3] COc1ccccc1CN(C)C(=O)c1cccc(S(=O)(=O)N2CCc3ccccc3C2)c1
  49	nt	-1.6%	22%	-2	nt	-10%
[4] COc1ccc(-c2nc(N)ncc2-c2csc(C)n2)c(O)c1
  -22	1.9	-3.9%	15%	26	10%	-2%
[5] O=C1[C@H]2[C@@H](c3ccccc3)N[C@]3(CCCN(Cc4ccco4)C3=O)[C@H]2C(=O)N1Cc1ccccc1
  -12	nt	0.7%	-10%	nt	nt	nt
[6] O=[N+]([O-])c1ccccc1OCC(O)CN1CCN(CC(O)COc2ccccc2[N+](=O)[O-])CC1 (stereo not drawn)
  1	-9.3	1.1%	-21%	-7	12%	13%
[7] O=C(CCC(C(=O)O)N1C(=O)c2ccccc2C1=O)Nc1ccccc1 (stereo not drawn)
  -13	nt	-2.7%	1%	nt	nt	7%
[8] CCN1C(=O)/C(=C2\C=Cc3cc(C)ccc3N2CC)OC1=S
  40	1.8	2.9%	10%	-8	1%	-2%
[9] CCc1ccc(N2CC(C(=O)Nc3nnc(CC)s3)CC2=O)cc1 (stereo not drawn)
  4	0.4	1.5%	-1%	-14	-5%	-7%
[10] CC1=NN(C(=O)c2nn(C)cc2Br)C(O)(C(F)(F)F)C1 (stereo not drawn)
  -4	9.4	-1.8%	-17%	3	15%	11%
[11] Cc1c(C(=O)N(Cc2cccc(Br)c2)C2CCS(=O)(=O)C2)oc2ccccc12 (stereo not drawn)
  0	nt	0.9%	3%	13	4%	?
[12] C=CCOc1c(Br)cc(/C=C(\C#N)C(N)=O)cc1OC
  -2	2.9	-1.0%	?	-6	-6%	-19%
[13] Cc1cc(Nc2c(C)cccc2C)n2nc(C)nc2n1
  -22	1.8	0.8%	-46%[inhibitor]	7	2%	2%
[14] O=C(NCc1csc(-c2cccs2)n1)Nc1ccc(F)cc1F
  0	-0.6	3.9%	4%	-14	1%	6%
[15] CCCCCCN(C(=O)CCCCCN1C(=O)NC(c2ccc(C(C)(C)C)cc2)C(C(=O)OCc2ccccc2)=C1C)C(C(=O)NCCCC)c1ccc(OCC(=O)OC)c(C(=O)OC)c1 (stereo not drawn)
  nt	-8.1&-7.4	nt	nt	-17	14%&14%	nt
[16] CCOc1cccc(C(=O)NC(=S)Nc2cccc(C)c2)c1
  -8	-1.1	1.2%	0%	2	-7%	6%
[17] CCOc1ccc(CCNC(=O)Cn2cccc2C(=O)c2ccccc2C)cc1OCC
  -4	4.1	0.2%	5%	2	8%	-14%
[18] Cc1ccc(CNC(=O)C2CCC(CNc3c(N4CCOCC4)c(=O)c3=O)CC2)cc1 (stereo not drawn)
  2	1.0	-0.5%	?	nt	-6%	-1%
[19] COc1ccccc1CNC(=O)CCS(=O)(=O)Cc1ccc(C)cc1
  12	nt	-0.9%	1%	8	16%	24%
[20] O=C(Nc1ccc(Cl)cc1)c1ccc(S(=O)(=O)N2CCOCC2)cc1
  11	-0.8	nt	3%	3	-7%	5%
[21] Cc1ccc2c(c1)CCCN2C(=O)c1ccoc1C
  -2	-0.6	-4.3%	8%	-11	-9%	-18%
[22] CC1(C)C2CCC1(CS(=O)(=O)Nc1ccc(S(=O)(=O)N3CCCC3)cc1)C(=O)C2 (stereo not drawn)
  14	0.5	-2.0%	23%	4	7%	-5%
[23] O=C(NCc1ccccc1)c1ncn(Cc2ccccc2)c1C(=O)NCc1ccccc1
  10	nt	-1.2%	-5%	-9	nt	-9%
[24] CCc1cc(=O)oc2c(C)c(OCC(=O)NCCCn3ccnc3)ccc12
  -4	1.7	4.2%	?	-5	12%	5%
[25] O=C(Nc1ccc(F)cc1)NC1CCCc2ccccc21 (stereo not drawn)
  -3	0.9	-0.7%	-8%	-3	15%	-8%
[26] CC1CN(c2ccc(NC(=O)c3ccco3)cc2C(=O)O)CC(C)O1 (stereo not drawn)
  -19	2.2	nt	15%[15.4 µM]	-4	22%	-1%
[27] Cc1ccc(NC(=O)COC(=O)c2cc(Cl)cc(Cl)c2)c(Br)c1
  -8	5.7	-5.5%	-20%	8	12%	9%
[28] Cc1ccccc1N(C(=O)c1snc(C(N)=O)c1N)C(C(=O)NCC1CCCO1)c1ccc(F)cc1 (stereo not drawn)
  -9	-7.8	0.4%	10%[15.4 µM]	-1	-18%	-15%
[29] O=C(CSCc1ccc(Cl)cc1)Nc1ccc(Br)cc1C(=O)O
  20	3.9	nt	?	21	3%	-9%
[30] CCOc1ccccc1NC(=O)c1ccc2c(c1)C(=O)N(CC(C)C)C2=O
  -8	-1.0	-1.8%	-10%[15.4 µM]	-1	7%	7%
[31] CCOC(=O)N1CCN(C2=C(NS(=O)(=O)c3ccc(C)cc3)C(=O)c3ccccc3C2=O)CC1
  -29	nt	15%	3%	-9	79µM*	-26%
[32] CC(CNS(=O)(=O)c1ccccc1)Sc1nncn1C (stereo not drawn)
  17	-1.2	0.7%	47%	-3	5%	9%
[33] Nc1nc(Nc2ccccc2F)nc(NCc2ccccc2)c1[N+](=O)[O-]
  4	0.1	-0.5%	?	11	-1%	1%
[34] Cc1cc(OCCCC(=O)NNC(=O)c2ccncc2)ccc1Cl
  -2	nt	1.4%	-7%	-1	21%	-6%
[35] Cc1ccccc1NC(=O)CSc1ccc(-c2ccccn2)nn1
  14&9	nt	1.1%&0.3%	-21%	5	14%	-4%
[36] Brc1cccc(C2CC(c3ccccc3)n3nnnc3N2)c1 (stereo not drawn)
  -3	2.6	-0.6%	-19%	-13	-13%	-25%
[37] CCN(c1ccccc1)S(=O)(=O)c1cc(C(=O)NCc2ccco2)ccc1C
  -3	nt	-3.0%	23%	-16	nt	-22%
[38] COc1ccc(CN(C(=O)c2oc3cc(C)ccc3c2C)C2CCS(=O)(=O)C2)cc1OC (stereo not drawn)
  -16	0.3	2.2%	10%	19	3%	-27%
[39] Cn1c(O)c(N=NC(=O)CNC(=O)c2ccco2)c2ccccc21
  -7	7.7	-3.1%	-86%[inhibitor]	-14	-10%	-9%
[40] O=C(NCCSCc1ccccc1)c1ccc(F)cc1
  6	nt	-2.1%	2%	-21	-11%	-6%
[41] Cc1ccc(-c2csc3ncnc(NCCC(=O)O)c23)cc1C
  -14	-0.1	nt	?	7	24%	-11%
[42] O=C(C1CCN(c2nnnn2-c2ccccc2)CC1)N1CCN(c2ccccc2)CC1
  15	3.8	1.0%	-10%	3	14%	-6%
[43] O=C(COC(=O)Cc1c(F)cccc1Cl)NC(=O)Nc1ccccc1F
  4	nt	1.1%	-33%[inhibitor]	nt	nt	3%
[44] NC(=O)c1sc2nc(N3CCCCC3)c3c(c2c1N)CCCC3
  -13	4.4	-28%	5%	7	?	13%
[45] COc1cc(CCC(=O)OCC(=O)Nc2c(C)cccc2C(C)C)cc(OC)c1OC
  -11	-1.7	-5.8%	-3%	-4	3%	6%
[46] O=C(N/N=C\c1ccc(Br)o1)C1COc2ccccc2O1 (stereo not drawn)
  4	27	1.8%	?	6	-1%	12%
[47] CCN(CCn1cccn1)C(=O)C1CCC(=O)N(CC2CCCCC2)C1 (stereo not drawn)
  -15	3.5	0.0%	-16%	-16	10%	6%
[48] COc1cccc(CNC(=O)c2cccc(S(=O)(=O)N3CCN(Cc4ccccc4)CC3)c2)c1
  -26	nt	-0.4%	-7%	nt	nt	-22%
[49] CCCCC(=O)Nc1ccc(NC(=O)c2cccnc2)cn1
  13	1.0	0.1%	1%	-7	14%	-7%
[50] CCOc1ccc(S(=O)(=O)N2CCN(C(=O)c3oc4ccc(OC)cc4c3C)CC2)cc1
  -9	nt	nt	3%[15.4 µM]	8	nt	-15%
[51] CCC(=O)Nc1cccc(C(=O)OC)c1
  5	-0.7	nt	?	-6	22%	7%
[52] COc1ccc(CNC(=O)c2cc3cccc(OC)c3oc2=N)cc1
  4	?	0.7%	?	-10	4%	1%
[53] CC(=O)Nc1sc(C)c(C)c1C(=O)Nc1ccc(C)cc1
  -1	1.1	-0.3%	?	18	6%	-10%
[54] CCOc1cc(CNc2ccccc2SC)ccc1O
  nt	1.1	nt	nt	12	56µM*	nt
[55] CN(C)S(=O)(=O)c1cc(S(=O)(=O)N(C)C)c(Cl)cc1N
  12	0.8	1.3%	-41%[inhibitor]	-1	-1%	-3%
[56] Cc1cc(C)cc(NC(=O)C2CCN(c3nccs3)CC2)c1
  1	3.4	1.1%	-27%	16	89µM*	11%
[57] Cc1ccc(C)c(N2CCN(CC(=O)Nc3ccc4[nH]c(=O)[nH]c4c3)CC2)c1
  10	5.5	-2.1%	-62%[inhibitor]	-6	21%	6%
[58] Cc1ccc(COc2cccc3c2CCN(Cc2ccc(F)cc2)C3=O)cc1
  -10	1.5	0.2%	-18%	-4	?	-12%
[59] COc1ccccc1CC(NC(C)=O)C(=O)NC1CCN(S(=O)(=O)c2ccc(NC(C)=O)cc2)CC1 (stereo not drawn)
  -5	nt	nt	10%	6	13%	16%
[60] COc1ccc(C(=O)CSc2nnc(CN3CCCCC3)n2-c2ccc(Cl)cc2)cc1OC
  6	4.6	1.2%	-2%	-7	5%	0%
[61] Cc1ccc(-c2cc(C(F)(F)F)n3nc(C(=O)NCCCn4ccnc4)cc3n2)cc1C
  7	0.3	-11%	-33%	7	?	14%
[62] O=C(CSc1ncn(-c2ccccc2)n1)Nc1nc2ccccc2s1
  41	4.6	-2.9%	6%	2	?	-24%
[63] Cc1cc2cc(CCNC(=O)c3ccc(Br)o3)c(=O)[nH]c2cc1C
  -16	4.2	-15%	?	21	28µM*	-7%
